Compound activity: PubChem BioAssay, several laboratories
Yeast UUG start: yeast start codon fidelity modulation; S. cerevisiae UUG-firefly luciferase reporter, luminescence/redox ratio; activity score, % at 18.7 µM; 350,000 tested, 0.13% active; AID 602363;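 active = replicate mean at a twofold rise or more, about +100% in these data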;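 also: firefly luciferase made from a UUG start codon reports start codon fidelity; reporter light over untreated wells divided by growth signal over untreated wells; some hits fall short of that in this replicate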
HIV Env fusion: blocks HIV Env-driven cell-cell fusion; HeLa-JRFL Env/CEM21 cell fusion, luciferase; inhibition, % at 12.3 µM; 360,000 tested, 1.1% active; AID 651610;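 active = mean replicate inhibition score of at least 50 and every replicate individually at or above 50; inconclusive = only one of the two criteria met; inactive = mean below 50 and not all replicates reaching 50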;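 also: 0% = plate neutral controls and 100% = maraviroc near 300 nM; one replicate is shown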
eIF4H inh: inhibitors of RNA binding by human eIF4H. eIF4H fluorescence polarization binding assay. inhibition, % at 35 µM. 290,000 tested, 0.94% active. AID 2012;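 active = 50% or more with normal probe brightness, or confirmed in later tests; inconclusive = above 50% with abnormal brightness, or retests that disagree; inactive = below 50% or failed in later tests; about a fifth of its hits are not listed in these tables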;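 also: calls also rest on retests at 20 µM and on dose response follow-up; 0% = protein and probe with vehicle and 100% = probe without protein; strong numbers were not always called active; many hits fall short of the cut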
Rce1 inhib: yeast Ras-converting enzyme inhibition | 290,000 tested, 0.27% active | yeast membranes, quenched prenylated peptide cleavage fluorescence | calls only;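 active = fall in fluorescence gain of 50% or more versus controls, with final raw signal at or below 3038400; inconclusive = same 50% fall but final raw signal above 3038400; inactive = fall in fluorescence gain under 50%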;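 also: plate controls were neutral control wells for no effect and wells lacking membranes for full effect; tested at 10 µM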
Target sequence (Q03530 whole entry, looked up): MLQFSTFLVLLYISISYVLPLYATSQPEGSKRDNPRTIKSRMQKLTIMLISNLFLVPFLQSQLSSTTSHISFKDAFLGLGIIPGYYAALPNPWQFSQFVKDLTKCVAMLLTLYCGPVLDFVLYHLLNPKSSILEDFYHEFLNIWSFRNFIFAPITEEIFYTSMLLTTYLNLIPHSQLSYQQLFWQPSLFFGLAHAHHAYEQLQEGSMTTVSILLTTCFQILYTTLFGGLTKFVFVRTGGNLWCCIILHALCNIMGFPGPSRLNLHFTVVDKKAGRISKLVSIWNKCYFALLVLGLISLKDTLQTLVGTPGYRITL
CSC inhib: blocks cancer stem cells; cancer stem cell-like cells viability, luminescence; inhibition, % at 7.5 µM; 300,000 tested, 1.1% active; AID 2717;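 active = mean at 75% or more and at least half the replicates too; inconclusive = mean and replicates disagree; tested in HMLE shEcad cells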;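 also: 0% = median of negative and 100% = median of positive control wells; the first replicate is given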
PABP FP inh: blocks human PABP binding to poly(A) RNA. P11940. 290,000 tested, 1% active. AID 2014. inhibition, % at 35 µM. fluorescence polarization;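 active = 50% or more with normal probe brightness, or confirmed in later tests; inconclusive = above 50% with abnormal brightness, or retests that disagree; inactive = below 50% or failed in later tests; about a fifth of its hits are not listed in these tables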;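 also: calls also rest on retests at 20 µM and on dose response follow-up; controls were probe without protein and protein plus probe with vehicle; some compounds called inactive have numbers as strong as hits; many hits fall short of the cut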
MT1-MMP act inh: inhibitors of human MT1-MMP activation; AID 651647; 360,000 tested, 0.061% active; HT1080 RFP-PRO-GFP cells, GFP/RFP ratio fluorescence, overnight; percent of plate control window, DMSO zero; GFP/RFP ratio change, % at 20 µM;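 active = GFP/RFP ratio change of at least 30% with cell ATP level not reduced by more than half and red fluorescence within 50% of control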; also: strong numbers were not always called active
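Assay system: HT1080 cells carrying an RFP-PRO-GFP reporter | Dosing: Single dose of 20 µM compound, 1% DMSO final | Incubation: Cells overnight before dosing, compound overnight, 37 °C, 5% CO2 | Evaluation: GFP/RFP fluorescence ratio | Control set: DMSO and RFP-L50D-GFP cell wells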
eIF4H inh retest: second read-out of eIF4H inh, no call of its own (marks repeat the call); inhibition, %; compound at 20 µM; confirmation average;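 mean of two retest wells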
PABP FP inh retest: second read-out of PABP FP inh, no call of its own (marks repeat the call); inhibition, %; compound at 20 µM; confirmation repeats;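 mean of two retest wells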
MT1-MMP act inh RFP: second read-out of MT1-MMP act inh, no call of its own (marks repeat the call); RFP signal change, %; measured here: RFP expression control read;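 0 = vehicle wells; hits needed this value within 50% of zero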
* marks the source's active call; other numbers are inactive results; i = inactive; ? = inconclusive; / = no result given.

SMILES	Yeast UUG start	HIV Env fusion	eIF4H inh	Rce1 inhib	CSC inhib	PABP FP inh	MT1-MMP act inh	MT1-MMP act inh RFP	others
CCOC(=O)C1CCN(c2c(N(C)Cc3ccco3)c(=O)c2=O)CC1	17	9	-4	i	-6	-20	2	6
CC(=O)N1c2ccc(S(=O)(=O)NCC3CCC(C(=O)N(C)Cc4ccccc4)CC3)cc2CC1C (centres undefined)	4	2	-11	i	-11	-5	2	-12
CCN(CC(=O)Nc1ccc2c(c1)OCCO2)C(=O)c1ccc([N+](=O)[O-])s1	-1	/	/	/	1	/	-4	1
Cc1ccc(C)c(CSc2nnc(-c3cccnc3)o2)c1	-9	-18	-2	i	-3	-1	-5	-4
COC(=O)c1cc(OC)c(OC)cc1NC(=O)c1ccccc1C	/	-4	-1	i	/	1	0	3
Cc1ccc(N(CC(N)=O)C2SC(=O)N(Cc3cccc(C(=O)O)c3)C2=O)cc1 (centres undefined)	-8	/	-3	i	-2	-4	-5	-3
Cc1cccc(N2C(=O)N3[C@H](c4ccc(Br)cc4)[C@@H]4C(=O)N(C(C)(C)C)C(=O)[C@@H]4[C@]3(Cc3ccc(Cl)cc3)C2=O)c1	-17	?	-6	i	9	0	2	-8
Cn1c(=O)c2c(ncn2CC(=O)OCC(=O)Nc2sccc2C(N)=O)n(C)c1=O	2	-1	/	i	/	/	3	3
O=C(COC(=O)c1ccccc1Nc1ccccc1)NCc1ccccc1Cl	-16	16	1	i	2	5	0	4
O=C(O)c1ccc(CCCc2ccccc2)cc1	-21	1	/	/	/	/	3	4
Cc1ccc2c(c1)C1OCCC1C1N2C(=O)C2C(C(=O)O)C3C=CC21O3 (centres undefined)	-9	/	9	i	-10	19	-1	3
COC(=O)C1CCN(C(=O)N2CCOCC2)CC1	-2	-62	1	i	-12	-6	3	0
O=C(CSc1nnnn1C1CCCC1)Nc1ccc2c(c1)OCCO2	/	/	8	i	/	3	3	1
CCOC(=O)N1CCC(NC(=O)CCS(=O)(=O)c2ccc3c(c2)CCN3C(C)=O)CC1	-17	-36	-4	i	6	-4	-1	-1
Cc1c(C(=O)N(C)C2CCCCC2)sc2ncnc(N3CCN(c4ccccc4)CC3)c12	-12	17	0	i	-2	-9	-7	-13
CCCCn1c(-c2cccnc2)n[nH]c1=S	/	13	-3	i	-12	10	1	5
O=C(/C=C/c1ccc(O)c(O)c1)O[C@H](Cc1ccc(O)c(O)c1)C(=O)O	/	/	98*	i	/	82*	/	/
CCOC(=O)C(=O)Nc1ccccc1C(=O)NC(C)C	-4	-4	3	i	-1	6	2	4
CC1=C(C(=O)N(C)C)C(c2ccc(C)s2)NC(=S)N1 (centres undefined)	/	5	2	i	/	20	-3	-1
O=C(COC(=O)CNC(=O)C1CCCCC1)Nc1ccc(Cl)cn1	-11	-43	/	i	-13	/	-2	3
CCOC(=O)N1CCN(C(=O)C2CCN(C(=O)c3cc(OC)cc(OC)c3)CC2)CC1	/	-6	3	i	-7	15	11	8
Cc1cccc(C)c1NC(=O)C1(N(Cc2ccco2)C(=O)c2ccccn2)CCCC1	-2	/	4	i	40	7	-3	4
CC1(C)CC(NNCCC#N)=CC(=[N+]2CCCC2)C1	/	6	83	i	0	9	-2	9	eIF4H inh retest=-6;PABP FP inh retest=2
CCOC(=O)C1CCN(CC(=O)NC(=O)NC2CCCCC2)CC1	/	-11	-6	i	-3	2	-1	-2
Clc1ccc(-c2nc3ccc(Cl)cn3c2Cc2ccsc2)cc1	-9	-121	/	/	/	/	0	3

Three structures already listed, arranged by molecular weight, largest number first.
SMILES	Yeast UUG start	HIV Env fusion	eIF4H inh	Rce1 inhib	CSC inhib	PABP FP inh	MT1-MMP act inh	MT1-MMP act inh RFP	others
O=C(COC(=O)CNC(=O)C1CCCCC1)Nc1ccc(Cl)cn1	-11	-43	/	i	-13	/	-2	3
CC1(C)CC(NNCCC#N)=CC(=[N+]2CCCC2)C1	/	6	83	i	0	9	-2	9	eIF4H inh retest=-6;PABP FP inh retest=2
O=C(O)c1ccc(CCCc2ccccc2)cc1	-21	1	/	/	/	/	3	4

New compounds follow
SMILES	Yeast UUG start	HIV Env fusion	eIF4H inh	Rce1 inhib	CSC inhib	PABP FP inh	MT1-MMP act inh	MT1-MMP act inh RFP	others
O=C(CC1CCCCC1)c1c(O)c2ccccc2oc1=O	1	-7	-8	i	38	8	-5	-4
O=C1c2ccccc2C(=O)N1OCc1c(F)cccc1Cl	0	-5	1	i	26	2	0	5
COc1ccc([N+](=O)[O-])cc1NC(=O)CCN1CCN(c2ccccc2)CC1	/	10	4	i	-9	-4	1	-1
Cc1cc(C)c(OCC(=O)NCC(C)(C)N2CCOCC2)c(C)c1	-20	7	/	i	10	/	3	1
NNC(=O)C1CC1c1ccc(Cl)cc1 (centres undefined)	/	2	-1	i	-19	-11	4	8
O=C(c1ccccc1NS(=O)(=O)c1ccccc1)N1CCCCCC1	-6	4	-7	i	-7	-2	-1	4
CCCC1=NN(C(=O)Cc2ccc(OC)cc2)C(O)(C(F)(F)F)C1 (centres undefined)	/	14	3	i	-5	1	-1	-2
CN1CCN(Cc2cc(=O)oc3cc4c(cc23)CCC4)CC1	-8	-3	-6	i	8	-3	-5	2
COc1ccc(OCC(=O)NNC(=S)NC(=O)C2CC2)cc1	-27	31	8	i	/	-6	2	7
COc1ccccc1NS(=O)(=O)c1cccc(C(=O)NCC(c2ccccc2OC)N2CCCC2)c1 (centres undefined)	-15	/	/	i	-14	/	-2	1
CCOc1cc(/C=N/NC(=O)c2cccnc2)ccc1OCC(=O)N(C)C	/	8	1	i	11	-9	0	7
O=C(NC1CCN(Cc2ccccc2)CC1)c1ccc(N2CC3CC(C2)c2cccc(=O)n2C3)c([N+](=O)[O-])c1 (centres undefined)	/	-48	1	i	-7	25	2	5
CCOc1ccc(/C=C2\SC(=S)N(Nc3ccccc3)C2=O)cc1OC	/	15	62	i	15	-1	4	2	eIF4H inh retest=-8;PABP FP inh retest=8
Cc1cccc(NS(=O)(=O)c2ccc(-c3ccc(=O)[nH]n3)o2)c1	-13	-1	3	i	-2	2	1	1
COc1ccc(Cl)cc1NC(=S)NCCC(c1ccccc1)c1ccccc1	-22	2	-5	i	45	-8	-2	-6
COc1ccc(/C=C/C(=O)N2CCC(C(N)=O)CC2)cc1S(=O)(=O)N1CCOCC1	-12	-8	5	i	-6	35	1	2
CC(C)Oc1ccc(S(=O)(=O)N2CCOCC2)cc1NC(=O)C1CCC1	/	9	/	i	5	/	-2	-7
CC(C)c1ccc(NC(=O)c2cc3c(=O)n(C)c4ccccc4c3n2C)cc1	-3	-102	-10	i	76*	-12	3	1
CC1CN(C(=O)c2cccc(S(=O)(=O)NCc3ccccc3)c2)CC(C)O1 (centres undefined)	1	1	/	/	10	/	2	2
O=C(Nc1ccc(O)c(-c2nc3ccccc3o2)c1)C1(c2ccc(Cl)cc2)CCCC1	/	31	-2	i	17	3	-6	-6
O=C(Nc1cc([N+](=O)[O-])ccc1F)C1CC1	/	-10	3	i	-10	5	-1	5
O=C(Nc1nccs1)c1ccc(Br)cc1	1	-31	0	i	-4	-2	0	0
Cc1ccc(NC(=O)Cc2nnc(SCC(=O)NC3CCCC3)n2C)cc1C	-18	3	-16	i	-5	6	1	2
NCCNc1cc(N2CCCC2)ccc1[N+](=O)[O-]	-11	-12	8	i	-13	-6	6	1
CN(C)CCCN1C(=O)c2cccc3c(Br)ccc(c23)C1=O	/	-77	31	i	14	5	-28	-2

Continued.
SMILES	Yeast UUG start	HIV Env fusion	eIF4H inh	Rce1 inhib	CSC inhib	PABP FP inh	MT1-MMP act inh	MT1-MMP act inh RFP	others
CC(=O)c1cccc(NC(=O)C2Cc3c(-c4cccc(F)c4)ccnc3O2)c1 (centres undefined)	-21	18	/	/	/	/	-3	-19
C[C@@H](C(=O)CC(=O)OC(C)(C)C)[C@@H](O)c1c(F)cccc1Cl	5	-5	12	i	-7	4	0	1
C=CCN1CCN(C(=O)CCCc2ccccc2)CC1	-40	12	-3	i	-10	2	-2	1
Cc1cc(C)cc(CSCC(=O)N/N=C/c2ccc(OCC(=O)NCc3ccco3)cc2)c1	-1	/	1	i	0	4	3	-3
O=[N+]([O-])c1ccc(-n2cc(-c3ccccc3)nn2)cc1	-9	-20	1	i	-18	6	3	0
COc1ccc(/C=C/C(=O)NCC(=O)N/N=C(/CCC(=O)O)c2ccccc2)cc1	-12	5	-16	i	-21	-6	5	6
Cc1cc2c(c(=O)n1Cc1cccnc1)C(c1cccs1)C(C#N)=C(N)O2 (centres undefined)	3	-62	5	i	-9	1	-5	7
CC1CCCCN1Cc1c(O)ccc2c(=O)c(-c3nc4ccccc4s3)c(N)oc12 (centres undefined)	/	7	-2	/	21	-6	1	-3
CC(=O)c1ccc(N2CCN(CC(=O)NCc3ccccc3)CC2)cc1	18	2	-4	i	-10	5	2	-1
Cc1nc(NC(=O)c2ccccc2)nc2cc3c(cc12)OCO3	-21	-58	4	i	-16	19	3	10
CN(C)/C=C/c1c([N+](=O)[O-])c2ccc(O)cc2n1-c1ccccc1	/	35	1	i	-8	4	-15	-6
COc1ccc(S(=O)(=O)Nc2nc3c(s2)C(=O)CC(C)(C)C3)cc1	-11	6	-3	i	-3	9	5	4
COc1ccc(C(=O)Nc2cccc(C(=O)NCc3ccco3)c2)cc1	-21	12	-1	i	33	5	1	-2
Cc1ccc(S(=O)(=O)N2CCC(C(=O)NCc3ccccc3CN3CCCC3)CC2)cc1	-15	/	/	/	-7	/	1	3
CCN(CC(=O)NCc1cccs1)C(=O)c1ccc(S(=O)(=O)Nc2ccccc2F)cc1	3	3	/	i	/	/	-3	-5
CC(C)c1ccc(S(=O)(=O)N2CCN(C(=O)Cc3ccsc3)CC2)cc1	-10	6	/	i	14	/	0	2
Cc1ccc(-c2cc(=O)[nH][nH]2)c(C)c1	15	-142	4	i	-17	8	0	-3
CCOC(=O)c1c(NC(=O)COC(=O)c2cnccn2)sc(C(=O)NC)c1C	-8	-3	/	/	8	/	2	3
Cc1csc(C(C#N)C(=O)c2ccc(S(=O)(=O)N3CCCC3)cc2)n1 (centres undefined)	-2	/	2	/	-2	14	-7	2
COc1cc(CN2CCCC(N3CCN(c4ccccc4C)CC3)C2)ccc1O (centres undefined)	-17	20	10	i	33	9	-2	1
CCN(C(=O)c1ccncc1)c1c(N)n(Cc2ccccc2)c(=O)[nH]c1=O	-3	27	/	/	/	/	-2	3
COC(=O)c1ccc(COc2ccccc2OC)o1	12	5	9	i	-11	4	2	2
COCCNC(=O)c1cn(C)c2ccc(S(=O)(=O)N3CCCCC3)cc2c1=O	0	-2	-9	i	-5	5	-14	-3
COc1ccccc1OCC(=O)Nc1cc(NC(=O)COc2ccccc2OC)cc(C(=O)O)c1	-12	6	-1	i	-4	32	-1	-2
O=C(CCC(=O)N1CCN(c2ccc(O)cc2)CC1)c1cccs1	/	22	5	i	22	-7	-6	2
CCCC(=O)C1=C(O)C(C(=O)OC)C(C)(C)CC1=Nc1cccc([N+](=O)[O-])c1 (centres undefined)	3	8	-2	i	-3	10	4	-1
O=C1c2ccccc2C(Nc2ccc3c(c2)OCCO3)N1c1ccc(Cl)cn1 (centres undefined)	-14	-11	-5	i	4	-10	2	1
O=C(COC(=O)COc1ccccc1[N+](=O)[O-])Nc1ccccc1Br	/	-8	6	i	6	4	-5	-14
Cc1ccc(C(=O)Nc2ncccc2C)cc1S(=O)(=O)N1CCCCC1	-13	-10	/	i	-3	/	1	4
